A1 inh = caspase 3/7 activation in MEF A1-2A-BIM cells, primary screen, A1 inhibitor project, cell-based, luminescence, HTS; hit rate 0.066% among 330,000; caspase activation, % (no concentration beside the values); Caspase-Glo 3/7 luminescence, 3 h; percent of clofoctol response, vehicle zero;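 active = over half of replicate activation scores above 10%, or exactly half above 10 with the replicate mean above 10; inconclusive = replicate mean below 10 yet half the replicates above 10; inactive = over half of replicates below 10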;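 note: wells of about 30 µL received 50 nL stock; many hits fall short of the cut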
RanGTP-Imp inh = inhibitors of RanGTP-importin-beta interaction, primary screen, biochemical, FRET, CFP-Ran, YFP-importin-beta, homogeneous. Ran GTPase (GTP-bound) - importin-beta complex. cell-free CFP-Ran/YFP-importin-beta FRET ratio. inhibition, % (no concentration beside the values). hit rate 1.1% among 300,000;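 active = most replicates above 15%; inconclusive = exactly half above 15%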;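 note: 0% = DMSO wells and 100% = Ran loaded with GDP instead of GTP; wells of about 40 µL received 100 nL stock; the first replicate is given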
Beta apoptosis = inhibitors of cytokine-induced beta cell apoptosis, primary screen, luminescence | INS-1E cytokine-induced death, ATP luminescence, 48 h; percent of positive-control rescue, neutral wells zero | hit rate 0.8% among 300,000 | AID 435005, 2010 | protection from apoptosis, % (no concentration beside the values);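 active = all replicates at 75% or more, or half of them and the mean; inconclusive = half reach 75% but not the mean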;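 note: 0% = cytokine-treated negative control wells and 100% = positive control rescue; higher means more ATP so stronger rescue from cytokine killing; wells of about 40 µL received 100 nL stock; the first replicate is given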
T cruzi inh = inhibitors of intracellular T. cruzi growth, primary screen, luminescence, NIH3T3 host cells | T. cruzi beta-gal in NIH3T3, 90 h | hit rate 1.4% among 300,000 | inhibition, % (test concentration not listed);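 active = mean inhibition across valid replicates above about 55%, limit read from the data; inconclusive = mean below that limit but half or more replicates reach it; inactive = mean below it, under half of replicates reach it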;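 note: signal also drops with host cell toxicity which is not excluded here; 0% = plate median of DMSO wells and 100% = zero luminescence signal; higher percent means less beta-gal luminescence so fewer parasites; stock transfer was 50 nL into about 50 µL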
B2AR ag = beta2AR agonists driving receptor internalization, primary screen, cell-based, FAP fluorogen, flow cytometry; Beta-2 adrenergic receptor (Homo sapiens), P07550; Am2.2-beta2AR cells; reference of the scale not given here; response, % (test concentration not listed); hit rate 0.43% among 340,000;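 active = response above a set limit, near 3 SD of response in nonfluorescent compounds, cut at about 42% in these data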;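 note: stock transfer was 100 nL into about 11 µL; a reference agonist was the positive control; negative values mostly stem from fluorescent compounds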
Target sequence (P07550 whole entry, looked up): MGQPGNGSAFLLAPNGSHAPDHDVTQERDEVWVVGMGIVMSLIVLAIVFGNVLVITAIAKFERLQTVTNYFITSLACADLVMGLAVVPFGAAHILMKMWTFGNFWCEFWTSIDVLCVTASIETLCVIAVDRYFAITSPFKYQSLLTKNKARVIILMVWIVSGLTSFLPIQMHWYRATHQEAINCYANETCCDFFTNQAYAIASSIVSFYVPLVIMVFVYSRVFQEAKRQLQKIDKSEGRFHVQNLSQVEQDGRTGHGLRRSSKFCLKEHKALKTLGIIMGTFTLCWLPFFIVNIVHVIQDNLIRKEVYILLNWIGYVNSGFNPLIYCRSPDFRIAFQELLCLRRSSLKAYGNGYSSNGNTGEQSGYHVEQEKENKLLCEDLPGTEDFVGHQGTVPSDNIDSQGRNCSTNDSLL
UCH37 inh = inhibitors of human UCH37 deubiquitinase, primary screen, biochemical, Ub-AMC cleavage, fluorescence; inhibition, % (concentration not given with the values); purified proteasome/UCH37; Ubiquitin carboxyl-terminal hydrolase isozyme L5 (Homo sapiens), Q9Y5K5; AID 588478, 2011; hit rate 0.33% among 330,000;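 active = mean of two replicates above 20%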;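 note: 0% = compound-free wells with enzyme and 100% = wells lacking proteasome; stock transfer was 100 nL into about 20 µL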
Target sequence (Q9Y5K5 whole entry, looked up): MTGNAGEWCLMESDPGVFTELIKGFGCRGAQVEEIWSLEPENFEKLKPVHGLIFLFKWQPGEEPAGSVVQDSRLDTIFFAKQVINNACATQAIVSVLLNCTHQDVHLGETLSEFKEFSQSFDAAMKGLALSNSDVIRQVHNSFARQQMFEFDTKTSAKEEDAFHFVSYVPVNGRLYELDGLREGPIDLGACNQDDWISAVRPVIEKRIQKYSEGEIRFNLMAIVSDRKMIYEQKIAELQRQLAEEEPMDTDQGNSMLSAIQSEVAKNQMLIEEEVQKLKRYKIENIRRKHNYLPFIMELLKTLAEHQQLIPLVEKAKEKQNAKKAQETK
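assay system = human UCH37 enzyme supplied as purified proteasome complex | amount = proteasome at 0.15 nM in the dispensed enzyme solution | schedule = 30 min compound-proteasome preincubation then 25 min substrate reaction, room temperature | measured by = fluorescence, ex 355 nm, em 460 nm | benchmarks = no-proteasome wells (full inhibition) and compound-free wells (no inhibition)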
LANA-H2B inh = blockers of LANA interaction with H2A/H2B – biochemical, FP readout, HTS, primary screen; Protein LANA1 (Human herpesvirus 8 type P (isolate GK18)), Q9QR71; cell-free LANA-H2A/H2B peptide, fluorescence polarization; inhibition, % (concentration not given with the values); hit rate 0.6% among 320,000; in the data active = inhibition mostly above about 10%, no sharp cut-off; inactive = mostly below about 6.7%;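 note: stock transfer was 7.5 nL into about 10 µL; 0% = median of vehicle wells and 100% = median of positive control wells; one replicate is shown; the record names a cut of 25% in any replicate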
Calb FLC = C. albicans growth inhibition with fluconazole, primary screen, CaCi-2 strain, Alamar Blue fluorescence. C. albicans CaCi-2 (fluconazole-resistant clinical isolate) + fluconazole, 48 h. AID 1979, 2009. growth inhibition, % (concentration not given with the values). hit rate 0.57% among 300,000;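 active = most replicates above 75%; inconclusive = exactly half above 75%; inactive = most below 75%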;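 note: all wells also contain fluconazole at 8 µg/ml as a sub-toxic cotreatment; 0% = median of DMSO wells and 100% = median of geldanamycin control wells; wells of about 8 µL received 7.5 nL stock; the first replicate is given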
An asterisk follows results filed as active. No enrichment for hits (roughly 4.3% active in at least one column).

Screening CCCCC(=O)Nc1ccc2c(c1)nc(CN1CCN(C(=O)OCC)CC1)n2C returned A1 inh 0.8, RanGTP-Imp inh 3.3, Beta apoptosis -6.9, T cruzi inh 6.2, B2AR ag -10.1, UCH37 inh 3.0, LANA-H2B inh -10.0 and Calb FLC 9.9.
For CC1CN(S(=O)(=O)c2cc(C(=O)N(C)Cc3cccs3)ccc2Cl)CC(C)O1 (stereo not given) the results were A1 inh -1.1, Beta apoptosis -4.1, B2AR ag 3.6, UCH37 inh 2.6 and LANA-H2B inh 6.7.
For COc1cc([N+](=O)[O-])ccc1N the results were A1 inh 1.1, RanGTP-Imp inh 3.4, Beta apoptosis -4.5, T cruzi inh -15.2, B2AR ag 15.1, UCH37 inh 8.4, LANA-H2B inh 1.1 and Calb FLC 22.6.
Cn1cnc(S(=O)(=O)Nc2ccc(OC(F)(F)F)cc2)c1 was read as A1 inh -0.7, RanGTP-Imp inh -2.9, Beta apoptosis -3.5, T cruzi inh -15.6, B2AR ag -3.3, UCH37 inh 1.0, LANA-H2B inh -1.0 and Calb FLC inconclusive.
Screening CC(C)Oc1ccc(C(CCNCc2ccc(O)cc2)c2ccccc2)cc1 (stereo not given) returned A1 inh 1.5, RanGTP-Imp inh -5.7, Beta apoptosis 63.1, T cruzi inh 24.2, B2AR ag 33.7, UCH37 inh 1.0, LANA-H2B inh 1.6 and Calb FLC -5.4.
For CCOc1cc(N2CCOCC2)c(OCC)cc1NC(=O)c1nc2nc(C)cc(C)n2n1 the results were A1 inh 0.1, RanGTP-Imp inh 3.8, Beta apoptosis -3.8, T cruzi inh -18.4, B2AR ag -0.5, UCH37 inh 3.6, LANA-H2B inh -3.4 and Calb FLC 100.8*.
O=C1CCc2cc(S(=O)(=O)Nc3ccccc3)cc3c2N1CCC3 was read as A1 inh 0.0, RanGTP-Imp inh inconclusive, Beta apoptosis 2.8, T cruzi inh -2.5, B2AR ag -4.2, UCH37 inh 0.7, LANA-H2B inh 0.3 and Calb FLC 5.1.
Screening OCc1cn(-c2ccccc2)nc1-c1cccnc1 returned A1 inh 0.0, RanGTP-Imp inh -1.5, Beta apoptosis 3.3, T cruzi inh -11.7, B2AR ag -3.8, UCH37 inh 1.7, LANA-H2B inh -0.3 and Calb FLC -8.5.
For COc1ccccc1NC(=O)C1CCCN1S(=O)(=O)c1cccc2nsnc12 (stereo not given) the results were A1 inh -1.2, RanGTP-Imp inh 1.5, Beta apoptosis -3.5, T cruzi inh 9.8, B2AR ag -3.2, UCH37 inh 1.3, LANA-H2B inh 4.0 and Calb FLC -1.0.
CC1=NN(c2ccc(C)cc2)C(=O)/C1=C/c1ccc(-c2cc([N+](=O)[O-])ccc2O)o1 was read as RanGTP-Imp inh 0.4, T cruzi inh 4.3, B2AR ag 34.0, UCH37 inh 3.2 and Calb FLC 2.1.
Screening CCOC(=O)c1nnn(CC(=O)Nc2cc(F)ccc2F)c1C(=O)OCC returned A1 inh 1.6, RanGTP-Imp inh -1.9, Beta apoptosis -5.5, T cruzi inh -8.3, B2AR ag 6.6, UCH37 inh -1.0, LANA-H2B inh -0.2 and Calb FLC 5.5.
`O=C(O)c1ccc(NCCC2=CCCCC2)c([N+](=O)[O-])c1` gave A1 inh -8.0, RanGTP-Imp inh 4.5, Beta apoptosis 4.7, T cruzi inh 9.1, B2AR ag 5.0, UCH37 inh 6.3, LANA-H2B inh 2.6 and Calb FLC 69.6.

Fetched by compound from the entries so far:
Screening OCc1cn(-c2ccccc2)nc1-c1cccnc1 returned A1 inh 0.0, RanGTP-Imp inh -1.5, Beta apoptosis 3.3, T cruzi inh -11.7, B2AR ag -3.8, UCH37 inh 1.7, LANA-H2B inh -0.3 and Calb FLC -8.5.
Screening CCCCC(=O)Nc1ccc2c(c1)nc(CN1CCN(C(=O)OCC)CC1)n2C returned A1 inh 0.8, RanGTP-Imp inh 3.3, Beta apoptosis -6.9, T cruzi inh 6.2, B2AR ag -10.1, UCH37 inh 3.0, LANA-H2B inh -10.0 and Calb FLC 9.9.

Further results
Screening COc1ccc(S(=O)(=O)N2CCC(C(N)=O)CC2)cc1C(=O)N1CCCCCC1 returned A1 inh -0.8, RanGTP-Imp inh 1.8, Beta apoptosis 0.1, T cruzi inh 7.5, B2AR ag -3.2, UCH37 inh 0.6, LANA-H2B inh -3.8 and Calb FLC 4.1.
Screening O=C(NNC(=O)c1cccs1)c1ccc2ccccc2c1 returned A1 inh -0.3, RanGTP-Imp inh -0.1, Beta apoptosis -10.4, T cruzi inh -5.6, B2AR ag 3.5, UCH37 inh 1.7, LANA-H2B inh 10.2 and Calb FLC -19.4.
For O=C(Nc1ccccc1N1CCCCC1)c1cccc(F)c1 the results were A1 inh -0.1, RanGTP-Imp inh 4.3, Beta apoptosis 3.3, T cruzi inh 4.2, B2AR ag -7.2, UCH37 inh -0.8, LANA-H2B inh 2.8 and Calb FLC 18.1.
Screening Cc1cccc(-n2ccc(=O)c(C(=O)Nc3ccc(S(=O)(=O)Nc4onc(C)c4C)cc3)n2)c1 returned A1 inh -0.5, RanGTP-Imp inh 0.1, Beta apoptosis -4.7, T cruzi inh -12.1, B2AR ag -14.5, UCH37 inh 6.3, LANA-H2B inh -0.4 and Calb FLC -0.8.
`O=C(COC(=O)CC(c1ccccc1)c1ccccc1)Nc1cccc(F)c1` gave A1 inh -0.2, RanGTP-Imp inh -1.3, Beta apoptosis -13.7, T cruzi inh -13.7, B2AR ag 16.5, UCH37 inh -1.0, LANA-H2B inh 4.4 and Calb FLC 27.1.
CCc1ccc(-c2cc(C)no2)cc1S(=O)(=O)N1CCN(c2ccccc2)CC1 was read as A1 inh 1.3, RanGTP-Imp inh 2.6, Beta apoptosis 6.0, T cruzi inh 11.4, B2AR ag -6.7, UCH37 inh 6.4, LANA-H2B inh 1.7 and Calb FLC 5.9.
Screening NS(=O)(=O)c1ccc(CCn2c(=S)[nH]c3ccccc3c2=O)cc1 returned A1 inh 0.0, RanGTP-Imp inh 1.8, Beta apoptosis 2.2, T cruzi inh -13.9, B2AR ag 25.5, UCH37 inh 4.7, LANA-H2B inh -0.2 and Calb FLC -2.7.
For C[C@@H]1CN(C2CCN(Cc3nc(C(c4ccccc4)c4ccccc4)no3)CC2)C[C@H](C)O1 the results were A1 inh 0.9, RanGTP-Imp inh -1.2, Beta apoptosis -10.2, T cruzi inh 25.7, B2AR ag 2.6, UCH37 inh -0.2, LANA-H2B inh -3.7 and Calb FLC -5.0.
CC(C)CNC(=O)NC(=O)COC(=O)c1cc([N+](=O)[O-])ccc1NCc1ccccc1Cl was read as A1 inh -0.6, RanGTP-Imp inh 2.0, Beta apoptosis 1.5, T cruzi inh -12.3, UCH37 inh 4.8, LANA-H2B inh -1.6 and Calb FLC 5.0.
Screening Cc1[nH]n(-c2ccccc2)c(=O)c1/C=N/NC(=O)c1cccc([N+](=O)[O-])c1 returned A1 inh 1.6, Beta apoptosis -2.1, B2AR ag 4.1 and LANA-H2B inh 2.0.
CCOc1ccc(-c2c(C(=O)N/N=C/c3ccc(C)cc3)nnn2-c2nonc2N)cc1 was read as A1 inh 0.6, RanGTP-Imp inh 3.5, Beta apoptosis -3.9, T cruzi inh -6.2, B2AR ag -3.7, LANA-H2B inh 2.1 and Calb FLC 4.6.
Screening Cc1ccc(C(C)C)c(OCCNC(=O)c2ccccc2O)c1 returned A1 inh 1.2, RanGTP-Imp inh 2.6, Beta apoptosis 18.8, T cruzi inh -7.0, B2AR ag 15.7, UCH37 inh 0.3, LANA-H2B inh -3.2 and Calb FLC -5.2.
`CCNC(=S)Nc1c(C)n(C)n(-c2ccccc2)c1=O` gave A1 inh -0.1, RanGTP-Imp inh -1.9, Beta apoptosis -1.3, T cruzi inh -19.5, B2AR ag -1.0, UCH37 inh 2.3, LANA-H2B inh -5.2 and Calb FLC -10.7.
Screening O=C(COc1ccccc1CNCc1ccccc1)Nc1ccccc1 returned A1 inh 1.7, RanGTP-Imp inh 3.1, Beta apoptosis 6.4, T cruzi inh -1.1, B2AR ag -5.8, UCH37 inh 4.8, LANA-H2B inh 2.7 and Calb FLC -7.9.
CCOC(=O)Cc1csc(NC(=O)c2cccc([N+](=O)[O-])c2)n1 was read as A1 inh -0.6, RanGTP-Imp inh 1.7, Beta apoptosis 1.4, T cruzi inh -5.4, B2AR ag 3.7, UCH37 inh -0.3, LANA-H2B inh 8.2 and Calb FLC -9.2.
For O=C(NCCc1cccc(F)c1)C1CCC(=O)N(C2CCCCCC2)C1 (stereo not given) the results were RanGTP-Imp inh -5.2, T cruzi inh 2.5, B2AR ag 0.4, UCH37 inh 5.4 and Calb FLC -9.2.
`CCn1c(SCC(=O)N/N=C/c2cc(OC)c(O)c(OC)c2)nc2ccccc21` gave A1 inh 1.9, RanGTP-Imp inh 0.4, Beta apoptosis -7.1, T cruzi inh -10.4, B2AR ag -6.9, LANA-H2B inh 0.0 and Calb FLC 5.7.
`CC(=O)NCCc1nc2cc(NC(=O)c3cccc([N+](=O)[O-])c3)ccc2n1C` gave A1 inh -2.8, RanGTP-Imp inh inconclusive, Beta apoptosis 3.9, T cruzi inh -3.1, B2AR ag -3.4, UCH37 inh 5.7, LANA-H2B inh -2.1 and Calb FLC 11.5.
Cc1ccc(CNC(=O)COC(=O)Cn2nc(C)c([N+](=O)[O-])c2C)cc1 was read as A1 inh 0.2, RanGTP-Imp inh -0.3, Beta apoptosis 3.5, T cruzi inh -6.3, B2AR ag 11.2, UCH37 inh -0.5, LANA-H2B inh -1.1 and Calb FLC -5.5.
Screening CC(=O)OCC(=O)N1N=C(c2ccc3ccccc3c2)CC1c1ccccc1 (stereo not given) returned A1 inh 0.3, RanGTP-Imp inh -3.7, Beta apoptosis -3.0, T cruzi inh 6.3, B2AR ag -63.7, UCH37 inh -37.3, LANA-H2B inh -2.3 and Calb FLC -1.1.
`Cc1cccc(-n2ncc3c2CCCC3NC(=O)CN2CCOC2=O)c1C` (stereo not given) gave A1 inh 0.0, RanGTP-Imp inh 2.2, Beta apoptosis -3.4, T cruzi inh -3.4, B2AR ag -2.0, UCH37 inh -3.4, LANA-H2B inh 0.1 and Calb FLC -26.4.
Screening COc1ccc(C(=O)N2CCCC2)cc1S(=O)(=O)N1CCOCC1 returned A1 inh 0.3, RanGTP-Imp inh 3.2, Beta apoptosis 2.9, T cruzi inh -12.5, B2AR ag 2.5, UCH37 inh 0.4, LANA-H2B inh 0.2 and Calb FLC -0.7.
`CC1CC(C)CN(CCCNC(=O)c2ccc(N3CCCC3=O)cc2)C1` (stereo not given) gave A1 inh 0.1, RanGTP-Imp inh -1.1, Beta apoptosis -5.4, T cruzi inh -6.7, B2AR ag -2.3, UCH37 inh -0.1, LANA-H2B inh 6.6 and Calb FLC 16.7.

Source: PubChem BioAssay (several laboratories)
